A1 inhib – inhibitors of A1; MEF A1-2A-BIM cells, caspase-Glo luminescence, 3 h; percent of clofoctol signal, DMSO as zero; caspase activation, % (no concentration beside the values); 21,000 tested, 0.51% active; AID 2241;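 active means most replicate scores above 10, or exactly half above 10 with mean activity above 10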;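 further: effector caspase 3 and 7 activity cleaving a DEVD luciferin substrate; 50 nL library stock added to about 30 µL; numbers are from one replicate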
BJeLR viab HTS – lowers viability of BJeLR cells; viability loss activity score, % (no concentration beside the values); 30,000 tested, 0.64% active; BJeLR fibroblasts viability, CellTiterGlo ATP luminescence, 48 h; HRASV12, hTERT and SV40 LT/ST transformed; in the data active means viability loss activity score above about 50%; about a fifth of its hits are not listed in these tables;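 further: higher score means fewer live cells and less ATP luminescence; stock transfer was 50 or 100 nL into about 30 µL; 0% = vehicle wells and 100% = a reference killing control; one replicate is shown; the record names a cut of 85%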
An asterisk follows results filed as active; x = not tested or not shown. The list is partial. The share of hits here may be higher or lower than overall.

SMILES	A1 inhib	BJeLR viab HTS
C[C@@H]1CN([C@H](C)CO)C(=O)c2cc(NC(=O)CCN3CCOCC3)ccc2O[C@@H]1CN(C)Cc1ccc(C(=O)Nc2ccccc2N)cc1	x	1.3
O=C1CC2(CCCC2)C(=O)N1c1ccc(I)cc1	x	0.2
CC(C)NC(=O)Nc1ccc2c(c1)C(=O)N([C@@H](C)CO)C[C@H](C)[C@@H](CN(C)CC1CCCCC1)O2	-0.4	-2.3
C[C@@H]1CN([C@@H](C)CO)C(=O)c2cc(NC(=O)Nc3ccc(C(F)(F)F)cc3)ccc2O[C@H]1CN(C)Cc1ccc(-c2ccccc2)cc1	-0.6	0.6
C[C@@H]1CN([C@@H](C)CO)C(=O)c2cc(NS(=O)(=O)c3ccc(Cl)cc3)ccc2O[C@@H]1CN(C)Cc1ccc(C(F)(F)F)cc1	2.0	-1.0
C[C@@H]1CN([C@H](C)CO)C(=O)c2cccc(NC(=O)c3nc4ccccc4s3)c2O[C@H]1CN(C)Cc1ccccc1	x	-1.4
C[C@@H]1CN([C@H](C)CO)C(=O)c2cc(NC(=O)Nc3ccccc3)ccc2O[C@H]1CN(C)Cc1ccc(Cl)c(Cl)c1	0.1	2.4
COc1cccc2sc(=NC(=O)CC34CC5CC(CC(C5)C3)C4)n(C)c12	-1.2	1.0
C[C@H](CO)N1C[C@H](C)[C@@H](CN(C)Cc2ccccc2)Oc2c(NC(=O)c3ccc(-c4nccs4)cc3)cccc2C1=O	x	-2.1
C=CCc1c(C)nc(OCC(=O)OCC)c(C#N)c1C	0.6	2.0
O=C(Nc1cccc(Br)c1)c1ccc(OC2CSC2)cc1	-8.6	10
CCS(=O)(=O)CCSc1nc(-c2ccccc2)cc(-c2ccccc2)c1C#N	-1.2	1.6
COc1ccc(S(=O)(=O)N(C)C[C@@H]2Oc3ccc(NS(=O)(=O)c4ccccc4)cc3C(=O)N([C@H](C)CO)C[C@@H]2C)cc1	-0.5	3.6
CCN(CC)/C(=N/S(=O)(=O)c1ccc(Cl)cc1)c1ccccc1	-0.7	-6.5
C[C@@H]1CN([C@H](C)CO)C(=O)c2cccc(NC(=O)Nc3ccc(F)cc3)c2O[C@@H]1CN(C)S(C)(=O)=O	x	-0.8
Cc1cc2ccccc2c(=O)n1CC(=O)NCC(=O)NCC1COc2ccccc2O1 (centres undefined)	x	0.0
CC(C)NC(=O)c1ccc(F)cc1	1.4	3.7
CS(=O)(=O)c1ccc(C2=C(c3ccccc3)C(=O)OC2)cc1	-0.1	9.6
C[C@@H]1CN([C@H](C)CO)C(=O)c2cc(NC(=O)Nc3ccc(C(F)(F)F)cc3)ccc2O[C@@H]1CN(C)S(=O)(=O)c1cn(C)cn1	0.6	-0.4
C[C@@H]1CN([C@H](C)CO)C(=O)c2cc(NC(=O)CCCN(C)C)ccc2O[C@H]1CN(C)Cc1ccccc1	0.4	-2.6

A different layout for some results above:
Values in the order – A1 inhib	BJeLR viab HTS
- C[C@@H]1CN([C@H](C)CO)C(=O)c2cccc(NC(=O)Nc3ccc(F)cc3)c2O[C@@H]1CN(C)S(C)(=O)=O
→ x	-0.8
- Cc1cc2ccccc2c(=O)n1CC(=O)NCC(=O)NCC1COc2ccccc2O1 (centres undefined)
→ x	0.0
- CC(C)NC(=O)c1ccc(F)cc1
→ 1.4	3.7

Next section.
SMILES	A1 inhib	BJeLR viab HTS
CCOC(=O)N1CCN(C(=O)Cn2ncc3ccccc32)CC1	0.9	-0.8
C[C@H]1CN([C@@H](C)CO)C(=O)c2cccc(NC(=O)c3nc4ccccc4s3)c2O[C@@H]1CN(C)C(=O)Nc1cccc2ccccc12	x	-5.9
CCOC(=O)C1=C(c2cccs2)OC(N)=C(C#N)C1c1cccnc1 (centres undefined)	1.1	-5.4
COc1cc2c(C(=O)N3CCN(c4ccccc4)CC3)cn(CC(C)C)c(=O)c2cc1OC	x	-11
Cc1oc(C(C)(C)C)cc1-c1cc(N)n(-c2ccc(S(N)(=O)=O)cc2)n1	-0.7	-0.9
C[C@@H]1CN([C@@H](C)CO)C(=O)c2cc(N(C)C)ccc2O[C@H]1CN(C)S(=O)(=O)c1ccccc1	-0.2	-2.4
CC(C)C(=O)Nc1cccc(-c2nc3ncccc3o2)c1	0.5	3.3
Cc1cc(C(=O)Nc2cccc3c2O[C@H](CN(C)CC2CC2)[C@@H](C)CN([C@H](C)CO)C3=O)n(C)n1	x	1.0
CCc1cc(-c2[nH]ncc2-c2nc(C)cs2)c(O)cc1OC(C)C(=O)NN (centres undefined)	0.8	3.1
COc1ccc(NC(=O)Nc2cccc3c2O[C@@H](CN(C)Cc2ccc(C(=O)O)cc2)[C@@H](C)CN([C@@H](C)CO)C3=O)cc1	x	-0.9
C[C@@H]1CN([C@H](C)CO)C(=O)c2cc(NS(=O)(=O)c3ccccc3)ccc2O[C@@H]1CN(C)C(=O)NC1CCCCC1	0.1	0.6
COc1cccc(OC)c1C(=O)N1CCN(C(=O)COc2ccc(Cl)cc2)CC1	0.2	1.2
FC(F)(F)c1nc(NCCc2ccccc2)nc2c1CCCCC2	x	4.7
CC(O)c1ccc2ccccc2c1 (centres undefined)	-0.7	5.8
CCOC(=O)c1ccc(C(=S)N2CCCC2)cc1	-1.2	-3.2
CCc1ccc(S(=O)(=O)NCc2cn3ccccc3n2)s1	0.3	4.1
C[C@H](CO)N1C[C@H](C)[C@H](CN(C)C(=O)Nc2cccc3ccccc23)Oc2ccc(NC(=O)Cc3ccccc3)cc2C1=O	-0.5	-0.6
COc1ccccc1-c1coc2cc(OCc3ccc(C)cc3)ccc2c1=O	0.7	-3.0
C[C@@H]1CN([C@H](C)CO)C(=O)c2cc(NC(=O)NC3CCCCC3)ccc2O[C@@H]1CN(C)S(=O)(=O)c1cn(C)cn1	0.7	6.3
C[C@@H]1CN([C@@H](C)CO)C(=O)c2cccc(NC(=O)C3CCOCC3)c2O[C@@H]1CN(C)S(=O)(=O)c1ccc(Cl)cc1	x	0.3
COC1CC(O[C@H]2CC[C@]3(C)C4CC[C@@]5(C)C(=O)[C@]4(CC[C@@H]3C2)CC[C@@H]5C2=CC(=O)OC2)OC(C)C1OC1OC(COC2OC(CO)C(O)C(O)C2O)C(O)C(O)C1O (some centres undefined)	-1.4	32
CC(C)c1cc(=O)n2c([nH]c3ccccc32)c1C#N	-4.6	17
O=C1CC(c2ccc(O)cc2)Oc2ccccc21 (centres undefined)	-7.1	-11
CCOC(=O)c1ccc2ncc3c(-c4ccccc4)nn(-c4ccccc4)c3c2c1	x	9.1
O=C(NCCCc1ccccc1)N1c2ccccc2Sc2ccccc21	-0.3	-5.0
CCOc1cc(CC(=O)N[C@@H](CC(C)C)c2ccccc2N2CCCCC2)ccc1C(=O)O	-1.1	-3.5
O=C(O)C(c1ccccc1)N1C(=O)/C(=C/c2ccncc2)SC1=S (centres undefined)	x	-3.3
C=CC(C)(O)C(O)CC1C(=C)CCC2C(C)(C(=O)O)CCCC12C (centres undefined)	-0.3	5.2
O=C(CC12CC3CC(CC(C3)C1)C2)N1CCCC1	-0.5	-11
C[C@H]1CN([C@@H](C)CO)C(=O)c2cc(NS(=O)(=O)c3ccc(F)cc3)ccc2O[C@H]1CN(C)Cc1ccc(Cl)c(Cl)c1	0.2	-4.8
C[C@@H]1CN([C@H](C)CO)C(=O)c2cccc(NS(=O)(=O)c3cccs3)c2O[C@@H]1CN(C)S(C)(=O)=O	x	-0.5
C[C@H]1CN([C@@H](C)CO)C(=O)c2cccc(NC(=O)c3ccc(-c4nccs4)cc3)c2O[C@H]1CN(C)Cc1ccc(Cl)c(Cl)c1	x	-2.0
COc1ccc(-c2cc(C(F)(F)F)c(C#N)c(SCCCn3c(=O)[nH]c4ccccc43)n2)cc1	1.4	-1.7
Cc1noc(C)c1S(=O)(=O)Nc1ccc2c(c1)C(=O)N([C@H](C)CO)C[C@H](C)[C@@H](CN(C)Cc1ccc(C(F)(F)F)cc1)O2	0.3	-0.5
CCc1ccc(N=Cc2c(O)[nH]c(=S)[nH]c2=O)cc1	-1.0	-6.5
S=C(NCC1COc2ccccc2O1)NC1CCCCC1 (centres undefined)	-0.5	4.0
Cc1ccc(S(=O)(=O)NC2CCOC(C)(C)C2)cc1 (centres undefined)	0.2	0.9
C[C@H]1CN([C@@H](C)CO)C(=O)c2cc(NS(=O)(=O)c3ccc(Cl)cc3)ccc2O[C@@H]1CN(C)Cc1ccc(-c2ccccc2)cc1	-0.4	0.8
CC(C)NC(=O)N(C)C[C@@H]1Oc2ccc(NC(=O)Nc3ccc(C(F)(F)F)cc3)cc2C(=O)N([C@H](C)CO)C[C@H]1C	0.5	-1.4
Cc1cc(NC(=O)Nc2cccs2)no1	-1.6	0.1
NC(=O)C1CCN(C(=O)c2ccc3nc(N4CCCCC4)sc3c2)CC1	0.1	-3.0
C[C@@H]1CN([C@@H](C)CO)C(=O)c2cc(NC(=O)Nc3ccc(F)cc3)ccc2O[C@H]1CN(C)S(=O)(=O)c1cn(C)cn1	-0.2	-1.3
CC(C)N(C(=O)c1ccc(-c2ccccc2F)cc1)C(C)C	0.1	-2.3
CCOC(=O)c1ccc(NC(=O)c2ccco2)cc1	-5.9	3.9
Cc1cc(C(=O)O)c(C)n1-c1cc(C(F)(F)F)cc(C(F)(F)F)c1	1.3	1.0
C[C@@H]1CN([C@@H](C)CO)C(=O)c2cc(NC(=O)Nc3ccc4c(c3)OCO4)ccc2O[C@H]1CN(C)C(=O)Nc1ccccc1	0.6	-0.8
CCc1ccc(NC(=O)Cn2ncn3cccc3c2=O)cc1	0.8	-2.4
CC(C)NC(=O)Nc1cccc2c1O[C@H](CN(C)S(=O)(=O)c1cn(C)cn1)[C@H](C)CN([C@@H](C)CO)C2=O	x	-1.0
Cc1sc(C)c(CNc2ccccc2)c1CNc1ccccc1	0.6	-2.6
COc1ccc(S(=O)(=O)N(C)C[C@H]2Oc3ccc(NC(=O)Nc4ccccc4)cc3C(=O)N([C@@H](C)CO)C[C@@H]2C)cc1	0.0	-1.0
C[C@@H]1CN([C@@H](C)CO)C(=O)c2cccc(NS(=O)(=O)c3ccc(F)cc3)c2O[C@@H]1CN(C)C(=O)Nc1ccccc1	x	-4.6
CC(CCc1ccccc1)NC(=O)C1CCN(S(=O)(=O)N2CCOCC2)CC1 (centres undefined)	0.7	-6.4
Cc1cc(C(=O)Nc2cccc3c2O[C@@H](CN(C)C(=O)NC(C)C)[C@@H](C)CN([C@@H](C)CO)C3=O)n(C)n1	x	0.6
CC(C)(C)SC(=O)c1cccnc1SCCS(=O)(=O)c1cccc(C(F)(F)F)c1	0.2	2.2
O=C1/C(=C/c2ccco2)Cc2ccccc21	x	6.2
CCCOc1ccc(C(=O)Nc2ccc3c(c2)Cc2ccccc2-3)cc1	0.3	1.4
Cc1ccc(C)c(CSc2nncn3c2cc2occc23)c1	-0.9	-0.3
Cc1noc(C)c1NC(=O)Nc1cccc2c1O[C@H](CN(C)Cc1ccccc1)[C@@H](C)CN([C@@H](C)CO)C2=O	x	2.8
COc1ccc(CN(C)C[C@H]2Oc3c(NC(=O)Nc4cccc5ccccc45)cccc3C(=O)N([C@H](C)CO)C[C@H]2C)cc1	x	0.6
CS(=NC(=O)Nc1ccc(Cl)cc1)c1sc(Cl)c2c1C(=O)CCC2 (centres undefined)	-0.6	-9.0
More results follow:
SMILES	A1 inhib	BJeLR viab HTS
COc1ccc(-c2nc(C)c(CCNS(=O)(=O)N(C)C)s2)cc1	-1.3	-7.3
C=CC1CCC(N(Cc2ccccc2)S(=O)(=O)c2ccc(C)cc2)C(O)C1 (centres undefined)	0.8	7.0
C[C@H](CO)N1C[C@H](C)[C@@H](CN(C)Cc2ccncc2)Oc2c(NC(=O)Nc3ccc(C(F)(F)F)cc3)cccc2C1=O	x	0.3
Cc1ccc(S(=O)(=O)Nc2cccc3c2O[C@@H](CN(C)Cc2ccc(C(=O)O)cc2)[C@@H](C)CN([C@H](C)CO)C3=O)cc1	x	-1.7
COc1ccc(NC(=O)Nc2ccc3c(c2)C(=O)N([C@@H](C)CO)C[C@H](C)[C@@H](CN(C)C(=O)Nc2ccccc2)O3)cc1	0.4	1.9
C[C@@H]1CN([C@@H](C)CO)C(=O)c2cc(NC(=O)CCCN(C)C)ccc2O[C@H]1CN(C)CC1CCCCC1	0.2	4.6
CCCCN(C)S(=O)(=O)c1ccc2c(c1)oc(=O)n2C	x	-1.5
CC(C)NC(=O)c1nnc(Cc2cccc(Cl)c2)o1	x	-3.2
Cc1ccc(S(=O)(=O)N(C)C[C@H]2Oc3ccc(NC(=O)Cc4cn(C)c5ccccc45)cc3C(=O)N([C@H](C)CO)C[C@H]2C)cc1	-0.3	3.2
C[C@H](CO)N1C[C@H](C)[C@H](CN(C)Cc2ccc(Cl)c(Cl)c2)Oc2c(NS(C)(=O)=O)cccc2C1=O	x	8.5
CNC(=O)c1nnc(-c2ccccc2)o1	x	0.5
COc1ccc(-n2cc(C(=O)N3CCCN(Cc4ccccc4F)C3)c3ccccc3c2=O)cc1	0.4	1.7

3 entries out of the list, arranged by length of the SMILES, smallest number first:
SMILES	A1 inhib	BJeLR viab HTS
CNC(=O)c1nnc(-c2ccccc2)o1	x	0.5
COc1ccc(-n2cc(C(=O)N3CCCN(Cc4ccccc4F)C3)c3ccccc3c2=O)cc1	0.4	1.7
Cc1ccc(S(=O)(=O)N(C)C[C@H]2Oc3ccc(NC(=O)Cc4cn(C)c5ccccc45)cc3C(=O)N([C@H](C)CO)C[C@H]2C)cc1	-0.3	3.2

Reformatted with bars between the fields: part of the list above.
smiles | A1 inhib | BJeLR viab HTS
C=CC1CCC(N(Cc2ccccc2)S(=O)(=O)c2ccc(C)cc2)C(O)C1 (centres undefined) | 0.8 | 7.0
C[C@H](CO)N1C[C@H](C)[C@@H](CN(C)Cc2ccncc2)Oc2c(NC(=O)Nc3ccc(C(F)(F)F)cc3)cccc2C1=O | x | 0.3
C[C@@H]1CN([C@@H](C)CO)C(=O)c2cc(NC(=O)CCCN(C)C)ccc2O[C@H]1CN(C)CC1CCCCC1 | 0.2 | 4.6
